Sa growth 42C: S. aureus growth inhibition at 42 and 30 °C, primary screen, LtaS inhibitor project, RN4220, two temperatures; OD600, 20 h, 42 °C; hits give low values; relative growth, % (test concentration not listed); 0.53% of 170,000 active;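 active = growth at 42 °C up to 50% and 20 or more points under that at 30 °C, or under 10% at both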;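 also: 300 nL library stock went into each well; scaled to the means of positive and negative controls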
HCMV UL50-53 inh: inhibitors of HCMV UL50-UL53 interaction, biochemical, HTRF; HCMV UL50-UL53 nuclear egress complex (human cytomegalovirus); normalized percent inhibition; inhibition, % (concentration not given with the values); 0.15% of 190,000 active; AID 1918969, 2023;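 active = both replicates at 50% or more, plus weaker picks with an unusually low signal ratio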;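 also: stock transfer was 100 nL into about 20 µL; 0% = negative control wells and 100% = wells with untagged competitor protein; inactives centre near -12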
GIV-Gai inh: inhibitors of GIV peptide binding to Galpha-i3, primary screen, biochemical, fluorescence polarization, FITC-GIV GBA peptide, rat Galphai3 | Guanine nucleotide-binding protein G(i) subunit alpha-3 (Rattus norvegicus), P08753 | 90 min; hits give low values; scaled: aluminum fluoride 0%, vehicle 100% | percent of control (FP), % (concentration not given with the values) | 0.42% of 210,000 active | AID 1224905, 2016;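 active = replicate mean at 85% of control or lower, very high polarization wells dropped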;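 also: wells of about 15 µL received 100 nL stock; the first replicate is given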
Target sequence (P08753 whole entry, looked up): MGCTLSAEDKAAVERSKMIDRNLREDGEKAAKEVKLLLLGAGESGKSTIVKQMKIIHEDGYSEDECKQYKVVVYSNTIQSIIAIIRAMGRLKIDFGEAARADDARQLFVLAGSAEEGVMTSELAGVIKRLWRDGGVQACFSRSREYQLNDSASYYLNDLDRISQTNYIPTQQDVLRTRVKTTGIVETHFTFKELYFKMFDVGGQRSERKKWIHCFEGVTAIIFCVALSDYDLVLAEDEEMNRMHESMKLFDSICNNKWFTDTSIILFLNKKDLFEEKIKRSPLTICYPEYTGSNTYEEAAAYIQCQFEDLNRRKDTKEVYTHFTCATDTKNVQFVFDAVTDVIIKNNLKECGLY
Sa growth 42C second temp: second read-out of Sa growth 42C, no call of its own (marks repeat the call); relative growth, %; measured here: growth at 30 °C;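 optical density after 20 h as mean of two plates; 100% = untreated growth and lower means inhibition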
Active calls of the source: *; . = not tested or not shown; & = joins results of further samples.

canonical_smiles	Sa growth 42C	Sa growth 42C second temp	HCMV UL50-53 inh	GIV-Gai inh
C[C@]12CC[C@H](OC3OC(O)C(O)C(O)C3O)C=C1CCC1C2CC[C@]2(C)[C@@H](c3ccc(=O)oc3)CC[C@]12O (stereo not given in full)	91.5	83.4	-55.0	.
C=CCCN1C(=O)CN=C(c2ccccc2)c2ccccc21	124.6	98.1	-10.6	101.9
Cc1ccc(C(=O)CN(C)C2CCCCC2)cc1	112.0	98.4	7.7	.
CC1=C2[C@@H]3OC(=O)[C@H](C)C3CC[C@@]2(C)C=CC1=O (stereo not given in full)	90.7	92.7	-12.5	100.5
CN1CCN(Cc2c(Cl)cccc2Cl)CC1	127.1	89.0	2.8	.
N#Cc1c(N)[n+]([O-])c2ccccc2[n+]1[O-]	65.0	31.7	-131.7	-31.1*
OC(c1ccccc1)(c1ccccc1)C1CCNCC1	113.2	104.0	4.8&-7.9&-6.3	99.8
COc1cccc(C=C2C(=O)NC(=O)NC2=O)c1	78.0	95.4	14.0	.
CCS(=O)(=O)N1CCC(C(=O)N2CCC3(CC2)OCCO3)CC1	111.8	98.0	-11.2	100.1
NCCc1cccc(Cl)c1	90.8	95.0	0.0	.
CNCCc1nc(N)n[nH]1	91.9	84.3	-10.5	102.0
Nc1ccc(Sc2ccc(N)cc2)cc1	106.1	84.8	.	98.4
Oc1ccc2c3c1OC1[C@@H](O)CC[C@@]4(O)[C@@H](C2)N(CC2CCC2)CC[C@]314 (stereo not given in full)	97.8	88.7	-42.4	.
O=C(COc1ccccc1[N+](=O)[O-])N1CCN(CCc2ccncc2)CC1	103.5	90.8	-31.3	103.0
Cn1c(=O)n(C)c2cc(CNCCc3c[nH]c4ccccc34)ccc21	.	.	1.7	99.3
Cc1cc2c(C(C)C)c(O)c(O)c(C=O)c2c(O)c1-c1c(C)cc2c(C(C)C)c(O)c(O)c(C=O)c2c1O	.	.	0.6&-7.8&0.4&-28.8&-8.6	99.6
CCN1CCC(NC2C3CC4CC(C3)CC2C4)CC1 (stereo not given)	91.8	109.0	2.9	104.2
CCOc1cc(C=C2C(=O)NC(=O)NC2=O)cc(Cl)c1O	111.8	96.7	10.7	72.2*
N#Cc1cc(F)c(N2CCCC2)cc1Cl	108.7	96.2	.	100.2
COP1(=S)C2=C(N3CCCC3)CCCC2=NN1c1ccccc1 (stereo not given)	86.4	78.2	-23.9	.
COC(=O)CC1=C(C(=O)OC)C2(C(=O)Nc3ccc(F)cc32)C(C#N)=C(N)O1 (stereo not given)	73.4	47.5	-9.5	99.5
CCC1(C)CC2(CCCN(CCO)C2)CCO1 (stereo not given)	89.0	92.0	-6.9	98.2
C/C(=C(/C#N)P(=S)(N1CCOCC1)N1CCOCC1)N1CCCC1	89.2	85.2	-22.4	.
CCOC(=O)C1=C(C)OC(N)=C(C#N)C12C(=O)Nc1ccc(C)cc12 (stereo not given)	80.1	29.0	-5.7	.
CCCCN1CCC(C#N)(Nc2ccccc2)CC1	81.4	94.4	8.3	.
Cc1cc(N2CCNCC2)nc2ccccc12	104.9	89.7	0.0	106.7
O=C(COc1ccccc1Cl)N(c1ccccc1Cl)C1CN2CCC1CC2 (stereo not given)	88.6	73.5	.	99.4
O=S1(=O)N(Cc2ccccc2Cl)CCCN1Cc1ccccc1Cl	99.8	89.5	1.5	97.4
CN(C)C(Cc1ccc(Cl)cc1)C(=O)c1ccccc1 (stereo not given)	87.6	94.2	-28.0	.
CC1(C)COC(Nc2cccc(Cl)c2)=N1	77.3	76.9	.	108.7
CCN(CC)C(=O)c1ccc(NC(=O)c2ccccc2)cc1	115.2	102.2	-3.3	99.3
Cc1nc2nc(-c3ccc(C(C)(C)C)cc3)nn2c(C)c1CC(=O)N1CCN(C)CC1	.	.	-10.8	101.3
COc1ccccc1NC(=O)N(Cc1ccc2c(c1)OCO2)C1CCN(Cc2ccccc2)CC1	107.0	97.7	.	107.4
CCOC(=O)C1=C(C)OC(N)=C(C#N)C12C(=O)N1c3c(cccc32)C(C)CC1(C)C (stereo not given)	84.4	50.5	2.4	100.2
C[N+](C)(C)CC#CCN1CCCC1=O	.	.	3.2&-9.1	103.7
CCOC(=O)C1=CC(=C2C(=O)NC(=O)NC2=O)c2ccccc2O1	80.3	78.2	.	101.8
CCOC(=O)C1=C(CN2CC=C(c3ccccc3)CC2)NC(=O)NC1c1ccc(OC)cc1 (stereo not given)	80.8	58.7	.	104.5
C[C@H](N)Cc1cccc(C(F)(F)F)c1	.	.	-30.0	99.3
Cc1cccc(CN2CCN(C(=O)COc3ccccc3)CC2)c1	81.6	117.8	-8.1	96.2
CC(=O)[C@H]1CC[C@H]2[C@@H]3CC[C@H]4C[C@](C)(O)CC[C@]4(C)[C@H]3CC[C@]12C	.	.	-12.5	104.5
O=C(C1CCN(S(=O)(=O)N2CCCC2)CC1)N1CCC2(CC1)OCCO2	96.9	90.7	-14.2	100.9
Clc1ccc(N/N=C2/CN3CCC2CC3)c(Cl)c1	94.8	79.4	-19.0	103.7
CN1C[C@@H](NS(=O)(=O)N(C)C)C[C@@H]2c3cccc4c3c(cn4C)C[C@H]21	85.6	83.3	-13.4	102.1
CN1CCCN(C(=O)COc2ccc(C#N)cc2)CC1	108.4	93.2	-4.5	.
Cc1[nH]c2c(C)cccc2c1C(O)CN1CCC(C)CC1 (stereo not given)	.	.	-28.7	104.6
O=C(O)CSC(c1ccccc1)c1ccccc1	124.6	95.1	-23.9	.
O=C(COc1ccc(Cl)cc1)N1CCN(CCc2ccncc2)CC1	.	.	7.9	100.2
C/C(=N\NC(N)=S)c1ccc(Cl)cc1	107.0	89.3	-4.6	.
O=c1c2ccccc2nc(CN2CCOCC2)n1-c1cccc(C(F)(F)F)c1	107.4	71.5	-8.0	99.1
CCOc1ccc(C2C(C#N)=C(N)Oc3c2c(=O)oc2ccccc32)cc1OCC (stereo not given)	.	.	-4.7	104.3
O=C1NC(=O)C(CCc2ccncc2)(c2ccccc2)C(=O)N1	76.0	112.0	-5.0	96.8
CCC1C(c2ccccc2)NC(c2ccccc2)CC1(O)c1ccc(F)cc1 (stereo not given)	91.3	50.0	.	101.3
CCCOc1ccc(C2SCC(=O)Nc3c2c(C)nn3-c2cccc(C)c2)cc1OC (stereo not given)	100.5	62.4	-4.3	95.3
CC(=O)OC1(c2ccccc2)CCN(C)C2CCCCC21 (stereo not given)	110.2	114.2	0.3	89.6
COc1ccc(C)cc1CCNCc1ccncc1	74.0	92.7	-10.7	.
CCC12CN3CN(C1)CC(CC)(C3)C2O (stereo not given)	106.3	86.5	-3.0	97.6
c1ccc(CCCN2CCN(CCOC(c3ccccc3)c3ccccc3)CC2)cc1	.	.	14.3&-7.7	99.3
C=CCN1C(=O)NC(=O)/C(=C\c2ccccc2)C1=O	111.2	75.1	2.8	97.8
CSc1nc(-c2ccc(Cl)cc2)nn1C(=O)N(C)C	104.2	77.2	-21.0	108.3
Cc1cc(OC(=O)N(C)C)cc(C)c1Cl	96.7	103.9	-5.2	99.2

(further entries)
canonical_smiles	Sa growth 42C	Sa growth 42C second temp	HCMV UL50-53 inh	GIV-Gai inh
COP(=S)(OC)Oc1cc(Cl)c(Cl)cc1Cl	70.9	35.2	-22.9	.
CN1C(=O)CC(=O)NC1=O	66.2	86.6	-17.2	.
Cc1[nH]c2ccccc2c1CCN	79.3	93.5	-11.9	.
O=C(c1ccc(F)cc1)N1CCC2(CC1)OCCO2	106.8	96.0	-24.3	103.9
O=C(NC1CCCC1)c1cc2cccnc2n(Cc2ccc(F)cc2)c1=O	.	.	-5.1	109.4
NCCn1ccc2ccccc21	91.6	46.7	-25.1	104.6
BrCc1ccc2nsnc2c1	74.9	88.3	-53.4	100.9
N#CC1=C(SCc2ccccc2)SCNC1=O	73.0	80.6	-18.2	109.8
CN(C)C(=O)Oc1cc(OC(=O)N(C)C)cc(C(O)CNC(C)(C)C)c1 (stereo not given)	88.1	82.5	-34.9&1.6&-17.2	99.9
CN1CCN(c2oc(-c3ccc(COc4ccccc4)o3)nc2C#N)CC1	96.1	67.2	-88.2	98.0
CC1CCCCC1NC(=O)c1cc2cccnc2n(Cc2ccccc2)c1=O (stereo not given)	86.1	85.1	-34.1	101.9
Cc1ccc2c(c1)C1CN(C)CCC1N2C(=O)c1ccco1 (stereo not given)	90.5	93.5	8.2	.
c1ccc2[nH]c(C3CCCNC3)nc2c1 (stereo not given)	93.2	86.2	-11.9	100.0
Nc1ncnc2c1ncn2[C@@H]1O[C@H](COP(=O)(O)CP(=O)(O)OP(=O)(O)O)[C@H](O)C1O (stereo not given in full)	.	.	-12.0	101.2
NC(N)=N/N=C/c1ccc2c(c1)OCO2	79.1	52.8	-45.0	106.1
Brc1ccc2[nH]cc(CNCCN3CCOCC3)c2c1	109.0	97.5	-10.3	.
COc1cc(C=C(C#N)C#N)cc2c1OCO2	91.4	54.2	-1.4	92.0
NCCc1c[nH]c2ccc(O)cc12	.	.	1.0&-7.6&-11.1&-9.6&-35.7	100.1
CN1CC=C(c2noc(CCC(=O)Nc3cccnc3)n2)CC1	.	.	-38.0	99.3
CC1CN=C(NCc2ccccc2)S1 (stereo not given)	94.8	85.4	-5.0	98.9
CCCCn1c(N)c(C(=O)NCCC)c2nc3ccccc3nc21	90.6	73.7	-20.3	105.0
NCCc1csc2c1CCCC2	97.0	89.3	.	101.9
CC(C)(C)c1o[nH]c(=O)c1CC(N)C(=O)O (stereo not given)	.	.	-10.9&-10.1	101.9
O=C1C2CCN(CC2)C1Cc1ccc(OCCOc2ccccc2)cc1 (stereo not given)	115.4	94.0	7.6	107.9
CC(=O)Nc1ccc(C2N3CCCN23)cc1 (stereo not given)	89.2	92.1	3.3	.
Clc1ccc(C2NCCc3[nH]cnc32)c(Cl)c1 (stereo not given)	.	.	3.1	107.5
CCN(CC)CC(O)c1c[nH]c2ccccc12 (stereo not given)	.	.	-27.5	117.3
Fc1ccc(C(OCCN2CCN(CCCc3ccccc3)CC2)c2ccc(F)cc2)cc1	.	.	-0.1&-10.3&-14.9	102.3
CC(=O)N1CCCCC1c1cccnc1.O=[N+]([O-])O.[Ag] (stereo not given)	5.0*	2.1*	-31.6	.
CC1(C)CC(=O)c2cc(OCC(=O)N3CCN(Cc4ccccc4)CC3)ccc2O1	125.0	87.5	.	103.6
CCNc1nc2c(=O)[nH]sc2c2c1C(c1cccnc1)C(C#N)=C(N)O2 (stereo not given)	88.5	75.7	-34.6	105.4
Clc1ccc(N2CCNCC2)cc1	86.4	95.3	39.6	107.3
Cc1nc(-c2ccccc2)nc(OC(=O)N(C)C)c1Oc1ccc(Cl)cc1Cl	126.5	83.5	-33.5	101.6
CCOc1cc2c(cc1OCC)-n1cccc1C(c1ccc(F)cc1)NC2 (stereo not given)	93.1	96.6	4.4	95.1
N#CCc1ccc(F)cc1	88.5	96.0	-8.5	.
NCCc1ccc(Cl)cc1	104.4	99.3	-10.4	.
COc1ccc(OCC(=O)N2CCN(Cc3cc(=O)n4nc(-c5ccc(OC)cc5)sc4n3)CC2)cc1	94.1	90.0	.	108.7
N#CC1=C(N)Oc2c(c(=O)oc3ccccc23)C1c1cccc(OCc2ccccc2)c1 (stereo not given)	.	.	-20.9	100.2
O=c1cccc2n1CC1CC2CN(Cc2nnc(-c3ccc4c(c3)OCO4)o2)C1 (stereo not given)	87.4	87.3	-18.8	100.9
CCOC(=O)C1=C(N)Oc2cc(O)ccc2C12C(=O)N1c3c(cccc32)C(C)CC1(C)C (stereo not given)	107.2	109.9	1.4	105.3
CCOc1ccc(NC(=O)N2Cc3c(C)cc(C)nc3-n3cccc3C2c2ccc(F)cc2)cc1 (stereo not given)	.	.	-12.8	104.5
CCOc1ccc(C2SCC(=O)Nc3c2c(=O)[nH]n3C(C)C)cc1 (stereo not given)	104.8	102.7	1.1	105.3

Single records, as listed above. Order of values: Sa growth 42C | Sa growth 42C second temp | HCMV UL50-53 inh | GIV-Gai inh
Profile of Clc1ccc(N2CCNCC2)cc1 = 86.4 | 95.3 | 39.6 | 107.3
Profile of Cc1nc(-c2ccccc2)nc(OC(=O)N(C)C)c1Oc1ccc(Cl)cc1Cl = 126.5 | 83.5 | -33.5 | 101.6
Profile of N#CC1=C(N)Oc2c(c(=O)oc3ccccc23)C1c1cccc(OCc2ccccc2)c1 (stereo not given) = . | . | -20.9 | 100.2
Profile of CCOc1ccc(NC(=O)N2Cc3c(C)cc(C)nc3-n3cccc3C2c2ccc(F)cc2)cc1 (stereo not given) = . | . | -12.8 | 104.5
Profile of N#CCc1ccc(F)cc1 = 88.5 | 96.0 | -8.5 | .

An excerpt. The share of hits here may be higher or lower than overall.
